fixLJ activator: activators of Burkholderia fixLJ two-component system; 29,000 compounds, 0.3% hits; B. multivorans fixK-promoter GFP reporter, 18 h; hits give high values; z-score (concentration not given with the values);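 active means replicate mean overnight rise in green fluorescent reporter signal, 3 or more SD over negative controls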;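 further: score is relative to vehicle wells of the plate; 300 nL library stock went into each well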
An asterisk follows results filed as active. A portion of the library (hit frequency here may not be typical).

SMILES | fixLJ activator
CCCc1cc(C(=O)N2CCC(c3[nH]ncc3-c3cccc(OC)c3)CC2)n[nH]1 | -1.7
Cc1cc(C2CC3CCC(C2)N3C(=O)c2ccnc(N)c2)ccc1F (stereo not drawn) | -0.74
CCc1[nH]nc(C(=O)N2CCCC(c3nc4c(C)cccc4[nH]3)C2)c1C (stereo not drawn) | 0.19
CCOC(=O)c1c(NC(=O)CSc2cn(CCNC(=O)c3ccc(OCC)cc3)c3ccccc23)sc2c1CCC2 | 0.14
Cc1cn2c(=O)cc(CN3Cc4cnc(C(C)(C)C)nc4C3)nc2s1 | -2.6
Cc1ccc(NC(=O)CCN2CCN(CCO)CC2)cc1C | -1.3
COc1ccccc1NC(=O)C1=C(C)Nc2nc(CCCO)nn2C1c1cccc(O)c1 (stereo not drawn) | -0.34
CCN1C(=O)c2ccccc2S(=O)c2ccc(C(=O)NCc3ccccc3OC)cc21 (stereo not drawn) | -0.99
COc1ccc(N(C(=O)c2cccc(C)c2)S(=O)(=O)c2ccc(Cl)cc2)cc1 | -0.09
O=c1c2ccccc2n(Cc2cccc(Cl)c2)c(=O)n1CCc1ccccc1 | -0.77
CCOC(=O)c1cccc(NC(=O)c2cnn(-c3ccccc3)c2-n2cccc2)c1 | -0.93
O=C(NC1CCCC(NC(=O)c2cnccn2)C1)c1cnc(-c2ccccn2)nc1 (stereo not drawn) | -0.68
CCC1CCCCN1CCCNC(=O)c1ccc2c(c1)N(Cc1cccc(C)c1)C(=O)c1ccccc1S2(=O)=O (stereo not drawn) | -0.58
Cc1cccc(N2CCN(C(=O)c3ccc4c(c3)N(Cc3ccccc3F)C(=O)c3ccccc3S4=O)CC2C)c1 (stereo not drawn) | 0.95
CC(Oc1ccc(Br)cc1)C(=O)N(Cc1nc(-c2ccccc2)no1)C(C)C (stereo not drawn) | -0.61
CCCNC(=O)c1ccc2c(c1)N=C(C)c1c(C)ccc(C)c1S2 | 0.05
CCCCCC(C)N (stereo not drawn) | -0.49
CCOC(=O)C1CCN(C(=O)c2nn(-c3ccc(C)cc3)c(=O)c3c2c2ccccc2n3C)CC1 | -0.01
COc1ccc(CNC(=O)C2CCN(c3nnc(-n4c(C)ccc4C)s3)CC2)c(OC)c1 | -0.14
CCCOc1cccc(C(=O)N2CCCCC2CCN2CCCCC2)c1 (stereo not drawn) | -1.7
CC(C)C1CCC(C(=O)N[C@H](Cc2ccccc2)C(=O)O)CC1 (stereo partly drawn) | 0.19
Cc1cccc(N2CCN(C(=O)c3cn(C4CCCCC4)c(=O)c4c3c3ccccc3n4C)CC2)c1C | 1.7
CCOc1ccccc1N(C)C(=O)Cn1nc(Cc2cccnc2)c2ccccc2c1=O | -1.4
CN(CCCOc1ccccc1Cl)C(=O)CCc1cn[nH]c1 | 0.01
COC(=O)c1ccc(NC(=O)CCc2c(C)nc3c(c(C)nn3-c3ccc(C)cc3)c2C)cc1 | -2.2
Cc1ccc(CN2C(=O)c3ccccc3C2C(=O)NC2CCCCCC2)cc1 (stereo not drawn) | -1.7
Cn1c(CN2CCOCC2)nnc1C1CCCN(CCCn2cccn2)C1 (stereo not drawn) | -1.8
CN(C(=O)Cc1ccc(C(F)(F)F)cc1)C1CCS(=O)(=O)CC1 | -0.67
O=C(Nc1ccc(F)cc1)c1oc2ccccc2c1NC(=O)C12CC3CC(CC(C3)C1)C2 | -0.81
O[C@H]1[C@H](O)[C@@H](O)[C@@H]2O[C@@H]2[C@@H]1O | -0.96
CO[C@@]12CCC(OCCO)CC1N(C(=O)c1ccnc3ccccc13)CC2 (stereo partly drawn) | -1.3
CCC1CCCCN1S(=O)(=O)c1ccc(NC(=O)c2nc(SC)ncc2Cl)cc1 (stereo not drawn) | 0.1
CCOc1ccc2oc(=O)cc(CN3CCN(c4ccccc4OC)CC3)c2c1 | -2.5
CCOC(=O)c1cc2c(=O)n3ccccc3nc2n(CC(C)C)c1=NC(=O)C(C)(C)Oc1ccc(Cl)cc1 | -1.1
Cc1cccn2c(=O)c3cc(C#N)c(=O)n(-c4nnc(SCc5ccc(F)cc5)s4)c3nc12 | 1.1
CCOc1ccc(NC(=O)Cn2c(=O)n(CCCCCC(=O)NCc3ccccc3)c(=O)c3sccc32)cc1 | -2
CC1CCc2c(sc(NC(=O)c3cc(-c4ccc(Br)cc4)on3)c2C(N)=O)C1 (stereo not drawn) | 0.07
Cc1ccc2c(c1)C(=O)OC(C(=O)Nc1ncc(Cc3ccccc3)s1)C2 (stereo not drawn) | -0.31
O=C(Cc1ccccc1)Nc1c(C(=O)Nc2ccccc2F)oc2ccccc12 | -1.1
Cc1ccc(NC(=O)Cn2c(=O)n(CCC(=O)NCCc3ccccc3)c(=O)c3ccccc32)cc1 | -0.49
N#Cc1ccccc1Cn1c(=O)n(CCCCC(=O)NCc2ccc3c(c2)OCO3)c(=O)c2ccccc21 | -0.11
CN(CC(=O)NCc1ccccc1Cl)S(=O)(=O)c1ccc2c(c1)c(=O)n(C)c(=O)n2C | 0.74
Cc1ccc(-c2nc(S(=O)(=O)c3ccc(C)cc3)c(N3CCCCCC3)o2)cc1 | -0.18
Cn1c(CN2CCCC2)nnc1C1CCCN(CC(=O)N2CCCCCC2)C1 (stereo not drawn) | 0.31
COc1ccc(CCNC(=O)CSc2cn(CCNC(=O)c3cccc(C(F)(F)F)c3)c3ccccc23)cc1OC | 0.86
COc1ccccc1N1CCN(C(=O)c2cc3c(s2)-c2ccccc2OC3)CC1 | 0.26
O=C1CCCCCN1CCC(=O)N1CCC2OCc3cnnn3C2C1 (stereo not drawn) | 1
CCn1c(C2CCCN(Cc3c(C(=O)O)[nH]c4ccc(C)cc34)C2)n[nH]c1=O (stereo not drawn) | -0.29
O=C(NCCc1ccc(Cl)cc1)c1ccc(Nc2nc3ccccc3n3nnnc23)cc1 | -1.2
O=C(c1ccc(Nc2nc3ccccc3n3nnnc23)cc1)N1CCN(c2cccc(C(F)(F)F)c2)CC1 | -0.28
COc1ccc(S(=O)(=O)N2CCN(c3cccc(C)c3C)CC2)c2ccccc12 | -0.15
CC1CNc2c(cccc2S(=O)(=O)N[C@@H](CCCN=C(N)N)C(=O)N2CC[C@@H](C)C[C@@H]2C(=O)O)C1 (stereo partly drawn) | -1.4
Cn1c(=O)n(C)c2cc(N3CCCCC3)c(NC(=O)c3ccc(C(C)(C)C)cc3)cc21 | -0.85
Cc1ccc(F)cc1NC(=O)CCSc1nc(-c2ccco2)cc(C(F)(F)F)n1 | -4
CCCCCn1c(CCCNC(=O)c2cccc(C)c2)nc2ccccc21 | 0.25
Cc1csc(NC(=O)C(C)N(C)CCn2ccnc2C)n1 (stereo not drawn) | -0.94
O=C(Cn1c(=O)n(CCCS(=O)(=O)C2CCCCC2)c(=O)c2ccccc21)Nc1ccc(F)c(Cl)c1 | 0.61
CN(Cc1ccccc1)c1ncccc1CNC(=O)C1(O)CCCCC1 | -1.3
Cc1nn(-c2ccccc2)c(OC(=O)c2ccccc2Cl)c1S(=O)(=O)c1ccccc1 | 0.12
O=C(CCCn1cncn1)NC1COCC1N1CCCCC1 (stereo not drawn) | 0.06

Part of the list above in order of molecular weight, ascending.
SMILES | fixLJ activator
CO[C@@]12CCC(OCCO)CC1N(C(=O)c1ccnc3ccccc13)CC2 (stereo partly drawn) | -1.3
Cc1ccc2c(c1)C(=O)OC(C(=O)Nc1ncc(Cc3ccccc3)s1)C2 (stereo not drawn) | -0.31
CCn1c(C2CCCN(Cc3c(C(=O)O)[nH]c4ccc(C)cc34)C2)n[nH]c1=O (stereo not drawn) | -0.29
Cc1ccc(-c2nc(S(=O)(=O)c3ccc(C)cc3)c(N3CCCCCC3)o2)cc1 | -0.18
O=C(NCCc1ccc(Cl)cc1)c1ccc(Nc2nc3ccccc3n3nnnc23)cc1 | -1.2
CCC1CCCCN1S(=O)(=O)c1ccc(NC(=O)c2nc(SC)ncc2Cl)cc1 (stereo not drawn) | 0.1
O=C(c1ccc(Nc2nc3ccccc3n3nnnc23)cc1)N1CCN(c2cccc(C(F)(F)F)c2)CC1 | -0.28

Next structures follow.
SMILES | fixLJ activator
NCCC(=O)NCc1cc2n(n1)CCCN(C1CCCCC1)C2 | 1.4
COc1cc(OC)cc(-c2nc3nc(C)c(CCC(=O)Nc4ccc(C)cc4C)c(C)n3n2)c1 | 0.05
O=C(Nc1ccccc1F)N1C[C@H]2COCC[C@@]2(O)[C@@H]2COCC[C@H]21 | -1.2
CC(CCCC(C)(C)O)NC(=O)N1CCCN(C(=O)c2ccco2)CC1 (stereo not drawn) | -2.1
CCOC(=O)c1c(NC(=O)COc2cccc(C(F)(F)F)c2)sc2c1CCCCC2 | -0.62
O=C(CCc1cccc(Cl)c1)NC1COCC1Cc1ccncc1 (stereo not drawn) | -0.84
CCc1ccc(S(=O)(=O)c2cn(C)c3ccc(C)cc3c2=O)cc1 | -0.07
CCC(=O)N1c2ccccc2C(C)(c2ccccc2)CC1(C)C (stereo not drawn) | -0.13
CCOC(=O)c1sc(NC(=O)c2cc3nc(-c4ccccc4)cc(C(F)(F)F)n3n2)c(C(=O)OCC)c1C | -2.4
CSc1ncc(C(=O)NCCc2nc(C)cc(C)n2)cn1 | 0.72
CN(CC(=O)NCc1csc2c1CCCC2)C1CCS(=O)(=O)C1 (stereo not drawn) | -1
N#C/C(=C\c1ccc(Cl)cc1)C(=O)NCC1CCCO1 (stereo not drawn) | -1.8
COc1cccc(CNC(=O)C(NS(=O)(=O)c2ccc3c(c2)CCN3C(C)=O)C(C)C)c1 (stereo not drawn) | -1.3
CCCCCCN1CC2(CCN(C(=O)c3ccc(C#N)cc3)CC2)OC1=O | 0.85
COc1cccc(C(=O)Nc2c(C(=O)c3ccc(F)cc3)oc3ccccc23)c1 | -1.4
CN1CCc2c(sc3c2C(=O)NC(c2ccc(OC(=O)c4ccc(C(C)(C)C)cc4)cc2)N3)C1 (stereo not drawn) | 2.3
Cc1ccc(Cl)cc1N1CCN(C(=O)c2cn(C)c3ccc(S(=O)(=O)N4CCC(C)CC4)cc3c2=O)CC1 | 0.33
CSCC(=O)N1CCc2ccc(S(=O)(=O)Nc3nnc(C)s3)cc2C1 | -1.1
Cc1cccc(NC(=O)CCNS(=O)(=O)c2cccc3nsnc23)c1C | -1.5
Cc1ccc(NC(=O)c2cccc3c2C(=O)N(C2CCCCC2)C3)c(C)c1 | -0.16
O=C(Nc1cccc(Cl)c1)N1Cc2ccccc2Oc2ncccc21 | -0.53
Cc1nc2c(-c3ccccc3)c(C)nn2c(C)c1CCC(=O)N1CCN(c2ccccc2)CC1 | -0.5
Cc1ccc(CN2CCCN(C(=O)c3cc(C(F)F)[nH]n3)CC2)s1 | -0.23
CCc1ccc(NC(=O)Cn2c(=O)n(-c3ccccc3)c(=O)c3ccc(C(=O)NCc4ccc5c(c4)OCO5)cc32)cc1 | 0.54
COc1cc2c(cc1OC)C(COc1ccc3c(C)cc(=O)oc3c1)N(C(=O)c1ccc(C)cc1)CC2 (stereo not drawn) | 0.44
CCCN(CCC)C(=O)c1cc2c(=O)n3cccc(C)c3nc2s1 | -2.7
O=C(Nc1ccccc1)c1ccccc1O | -0.92
COc1ccccc1NC(=O)CCN1CCCCC1 | -1.4
COc1ccc(CCn2c3c(c(=O)[nH]c2=O)C(NC(=O)c2ccccc2)(C(F)(F)F)C(=O)N3)cc1OC (stereo not drawn) | -0.79
CC(C)c1ccc(NC(=O)CCNS(=O)(=O)c2cccc3nsnc23)cc1 | -2

Part of the list above, set out differently.
N#C/C(=C\c1ccc(Cl)cc1)C(=O)NCC1CCCO1 (stereo not drawn)
  fixLJ activator: -1.8
COc1cccc(CNC(=O)C(NS(=O)(=O)c2ccc3c(c2)CCN3C(C)=O)C(C)C)c1 (stereo not drawn)
  fixLJ activator: -1.3
CCCCCCN1CC2(CCN(C(=O)c3ccc(C#N)cc3)CC2)OC1=O
  fixLJ activator: 0.85

(continued)
SMILES | fixLJ activator
CCN1CCN(c2cc(C)c3cc(NC(=O)c4ccc(OC)c(OC)c4)ccc3n2)CC1 | -2.8
Nc1nonc1C(=O)NCCNCc1cccc(Cl)c1Cl | -0.46
CC(C)(C)C1CCc2oc3ccc(NS(=O)(=O)c4cc(Cl)ccc4Cl)cc3c2C1 (stereo not drawn) | 0.21
Cc1cc(C)n(Cc2ccc(C(=O)N(C)Cc3noc4c3CCCC4)cc2)n1 | 0.18
COCc1nnc(NC(=O)CN2CCCCC2c2ccccn2)s1 (stereo not drawn) | -1.8
COc1ccc(-c2noc(CSc3nnc(-c4ccncc4)n3-c3ccccc3)n2)cc1 | -0.83
CC(=O)Nc1ccc(Nc2c(CCC(C)C)c(C)c(C#N)c3nc4ccccc4n23)cc1 | -0.26
CC(=O)c1ccc(NC(=O)Cn2nc(C(F)(F)F)c3c2CCC3)cc1 | -0.64
O=S1(=O)N(Cc2ccccc2Cl)CCCN1Cc1ccccc1Cl | 0.71
COc1ccccc1CNC(=O)CCc1c(C)c2cc3c(C)coc3cc2oc1=O | 0.27
COc1ccc(OCC(=O)Nc2ccc(-c3nc4cc(Cl)ccc4o3)cc2)cc1 | -0.5
Cc1ccc2c(c1)-c1c(cnn1CC(=O)N1CCN(c3cccc(C(F)(F)F)c3)CC1)CO2 | 0.02
COc1cc2[nH]c(=O)n(CCCC(=O)N3CCN(c4cccc(C(F)(F)F)c4)CC3)c(=O)c2cc1OC | 0.3
CSc1cccc(NC(=O)C2CCN(C(=O)c3cnn(-c4ccccc4)c3-n3cccc3)CC2)c1 | -2.9
COc1cccc(/C=C(\C#N)c2nc3ccccc3c(=O)[nH]2)c1OC | 1.9
COCCNC(=O)CSc1c2c(nc3cc(Cl)ccc13)CCCC2 | -3.6
COc1cccc(S(=O)(=O)NC2CCC(NC(=O)c3cc(C)cc(F)c3)C2)c1 (stereo not drawn) | -2.7
Cc1ccc(Sc2c(C)nn(C(C)(C)C)c2OC(=O)CC(C)C)cc1 | 0.16
